Screening results: PubChem, several laboratories
CBX7 inh: CBX7 chromodomain binding inhibitors, primary screen, biochemical, AlphaScreen; AlphaScreen His6-CBX7 / biotin-H3K27me3 peptide binding; active compounds read low; normalised signal (fraction of DMSO) (test concentration not listed); 66,000 tested, 1.1% active; Chromobox protein homolog 7 (Homo sapiens), O95931; in the data active = normalised signal below about 0.5;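 note: 100 nL library stock added to about 20 µL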
Target sequence (O95931 whole entry, looked up): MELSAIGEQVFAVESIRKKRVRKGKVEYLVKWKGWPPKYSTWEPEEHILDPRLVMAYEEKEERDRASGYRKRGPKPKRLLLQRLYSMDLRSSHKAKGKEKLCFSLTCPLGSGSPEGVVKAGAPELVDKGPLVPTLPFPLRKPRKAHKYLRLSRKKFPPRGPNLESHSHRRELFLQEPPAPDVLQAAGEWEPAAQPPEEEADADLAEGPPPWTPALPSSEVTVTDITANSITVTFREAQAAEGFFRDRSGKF
CBX7 inh z-score: recorded beside CBX7 inh, whose call it bears; z-score; measured here: z-score of CBX7 signal; some inactives read as strong as hits; reference of the scale not given here;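 same signal on another scale; lower means less binding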
An asterisk follows results filed as active; & = joins results of further samples; ! = not confirmed by another sample. These rows are one share of the data; the hit share may differ from the screen's.

SMILES | CBX7 inh | CBX7 inh z-score
CC(C)c1cc(C(=O)Nc2cc(Cl)ccc2Cl)no1 | 0.96 | -0.45
Clc1ccc2nc3c(c(Nc4ccc(Oc5ccccc5)cc4)c2c1)CCC3 | 1.1 | 0.15
O=C(COc1ccccc1)Nc1nc(-c2ccc(Cl)cc2)cs1 | 0.99 | -0.24
CCOc1ccc(C2(c3ccc(O)cc3)CCCCC2)cc1 | 0.99 | -0.27
CCC(C(=O)Nc1c2c(nn1-c1cccc(Cl)c1)CSC2)c1ccccc1 (stereo not drawn) | 1 | 0.7
CCc1ccc(-c2nc(CN3CCC(C(=O)NCc4ccc(C)cc4)CC3)c(C)o2)cc1 | 0.93 | -0.74
CCOCCCNC(=O)c1ccc2c(c1)N=C(CC)c1cc(Br)ccc1S2 | 0.97 | -1.4
O=C(CC1(O)C(=O)Nc2ccccc21)c1ccc(-n2cnnn2)cc1 (stereo not drawn) | 0.92 | -1.3
O=C(COc1ccc(-c2ccccc2)cc1)NCCc1nc2ccccc2[nH]1 | 1.1 | 2.2
CC1(C)CC(=O)c2c(nc(Cc3ccccc3)c3[nH]c4ccccc4c23)C1 | 1.3 | 11
CCCn1c(C(O)c2cccc(OC)c2)nc2ccccc21 (stereo not drawn) | 1 | 0.62
Cc1cc(C(F)(F)F)nc(Nc2nc(-c3ccccc3)c3cc(Cl)ccc3n2)n1 | 1.1 | 1.9
COCc1nc2ccccc2n1CCOc1ccc(Cl)cc1 | 1 | 0.48
O=c1c2ccccc2nc(/C=C/c2ccc(OCc3ccc(Cl)c(Cl)c3)cc2)n1-c1ccccc1F | 1.1 | 6.6
COc1cccc(NC(=O)Cn2cc(S(=O)(=O)c3ccccc3)c(=O)c3cc(OC)ccc32)c1 | 0.85 | -2.2
COc1ccc(N2C(=O)CCC(C(=O)Nc3ccc(F)cc3F)C2c2ccc(OC)c(OC)c2)cc1 (stereo not drawn) | 1.1 | 2
COc1ccccc1NC(=O)c1cc(-c2ccc(C)c(C)c2)nc2ccccc12 | 0.62 | -2.9
CCc1nnc(NC(=O)C2CCN(c3cc(C)nc4c(-c5ccc(Cl)cc5)c(C)nn34)CC2)s1 | 1.1 | 1.2
COC(=O)c1ccc(NC(=O)c2cnc3ccccn3c2=O)cc1 | 1.1 | 1.8
COC(=O)c1cnc(N(C)Cc2ccccc2)c2ccccc12 | 1.8 | 19
COc1ccc(OC)c2[nH]c(=O)c(CCNS(=O)(=O)c3ccc(C)cc3)cc12 | 1 | 0.74
CCOc1ccc(CCNC(=O)CCc2c(C)nc3cc(-c4ccc(Cl)cc4)nn3c2C)cc1 | 1 | 1
Cc1ccccc1N1C(=O)C2C3CC(=O)C(c4ccccc43)C2C1=O (stereo not drawn) | 0.96 | -1.3
O=C(CSc1nnc2c(n1)[nH]c1ccccc12)Nc1ccccc1F | 0.94 | -1.1
CCOC(=O)CSc1nnc(Cc2cc(=O)[nH]c(=O)[nH]2)n1-c1cccc(C)c1 | 1.1 | 0.55
COc1ccc2nc(NC(=O)CSc3nccn3C)sc2c1 | 0.81&0.95 | -2.5&-1.2
CCOC(=O)c1cnc2c(C)cc(Cl)cc2c1Nc1ccc(C)c(C)c1 | 1.1 | 0.46
OCc1cn(-c2ccccc2)nc1-c1ccc(Br)cc1 | 1.1 | 1.1
COCCCNC(=O)CSc1nc(-c2ccc(OC)c(OC)c2)[nH]c1-c1ccc(F)cc1 | 0.99 | -0.11
CCn1c(=O)c(=O)n(CC)c2cc(S(=O)(=O)NCc3cccs3)ccc21 | 0.98 | -0.94
Cc1ccc(N2C(=O)CC(N3CCN(c4ccc(Cl)cc4)CC3)C2=O)c(C)c1 (stereo not drawn) | 0.88 | -1.8
Cc1ccn2c(NC(=O)C(C)(C)C)c(-c3ccc(F)cc3)nc2c1 | 0.95 | -1.3
CC(c1ccncc1)N(CCN(C)C)C(=O)Nc1ccc(Cl)cc1 (stereo not drawn) | 1 | 1.8
O=C(CSc1oc(-c2ccccc2)nc1S(=O)(=O)c1ccc(F)cc1)Nc1ccc(F)cc1 | 0.92 | -1.1
CCCCN(CCCC)CCNC(=O)CS(=O)(=O)Cc1nc(-c2cccc(OC)c2)oc1C | 1.3 | 2.9
CCOC(=O)c1ccc(Nc2cc3ccccc3c(=O)[nH]2)cc1 | 1 | 0.5
COc1ccc2nc(N3CCCC(C(=O)NC(C)C)C3)sc2c1 (stereo not drawn) | 1.2 | 1.7
Cc1c(C(=O)NCC(C)C)sc2nc(-c3ccccc3)cn12 | 0.94 | -1.1
O=C1CCc2cc(S(=O)(=O)N3CCC(C(=O)Nc4ccc5c(c4)OCCO5)CC3)ccc2N1 | 1 | 0.27
O=C(Cn1nc(-c2ccccc2)ccc1=O)NCCCN1CCCCCC1 | 1 | 1.2

Sorted by molecular weight (falling): part of the list above
SMILES | CBX7 inh | CBX7 inh z-score
COc1ccc(N2C(=O)CCC(C(=O)Nc3ccc(F)cc3F)C2c2ccc(OC)c(OC)c2)cc1 (stereo not drawn) | 1.1 | 2
CCc1nnc(NC(=O)C2CCN(c3cc(C)nc4c(-c5ccc(Cl)cc5)c(C)nn34)CC2)s1 | 1.1 | 1.2
O=C(CSc1oc(-c2ccccc2)nc1S(=O)(=O)c1ccc(F)cc1)Nc1ccc(F)cc1 | 0.92 | -1.1
CCCCN(CCCC)CCNC(=O)CS(=O)(=O)Cc1nc(-c2cccc(OC)c2)oc1C | 1.3 | 2.9
CCOc1ccc(CCNC(=O)CCc2c(C)nc3cc(-c4ccc(Cl)cc4)nn3c2C)cc1 | 1 | 1
O=C1CCc2cc(S(=O)(=O)N3CCC(C(=O)Nc4ccc5c(c4)OCCO5)CC3)ccc2N1 | 1 | 0.27
COCCCNC(=O)CSc1nc(-c2ccc(OC)c(OC)c2)[nH]c1-c1ccc(F)cc1 | 0.99 | -0.11
COc1ccc(OC)c2[nH]c(=O)c(CCNS(=O)(=O)c3ccc(C)cc3)cc12 | 1 | 0.74
CCOC(=O)CSc1nnc(Cc2cc(=O)[nH]c(=O)[nH]2)n1-c1cccc(C)c1 | 1.1 | 0.55
Cc1ccc(N2C(=O)CC(N3CCN(c4ccc(Cl)cc4)CC3)C2=O)c(C)c1 (stereo not drawn) | 0.88 | -1.8
CCn1c(=O)c(=O)n(CC)c2cc(S(=O)(=O)NCc3cccs3)ccc21 | 0.98 | -0.94
O=C(Cn1nc(-c2ccccc2)ccc1=O)NCCCN1CCCCCC1 | 1 | 1.2
O=C(CSc1nnc2c(n1)[nH]c1ccccc12)Nc1ccccc1F | 0.94 | -1.1
CC(c1ccncc1)N(CCN(C)C)C(=O)Nc1ccc(Cl)cc1 (stereo not drawn) | 1 | 1.8
COc1ccc2nc(NC(=O)CSc3nccn3C)sc2c1 | 0.81&0.95 | -2.5&-1.2
COc1ccc2nc(N3CCCC(C(=O)NC(C)C)C3)sc2c1 (stereo not drawn) | 1.2 | 1.7
Cc1ccccc1N1C(=O)C2C3CC(=O)C(c4ccccc43)C2C1=O (stereo not drawn) | 0.96 | -1.3
OCc1cn(-c2ccccc2)nc1-c1ccc(Br)cc1 | 1.1 | 1.1
COC(=O)c1ccc(NC(=O)c2cnc3ccccn3c2=O)cc1 | 1.1 | 1.8
Cc1c(C(=O)NCC(C)C)sc2nc(-c3ccccc3)cn12 | 0.94 | -1.1
CCOC(=O)c1ccc(Nc2cc3ccccc3c(=O)[nH]2)cc1 | 1 | 0.5
COC(=O)c1cnc(N(C)Cc2ccccc2)c2ccccc12 | 1.8 | 19

(next part)
SMILES | CBX7 inh | CBX7 inh z-score
O=C(COc1ccc(Cl)cc1)NCc1nnc(SCC(=O)Nc2cccc3ccccc23)o1 | 1 | 0.29
COc1ccc(NS(=O)(=O)c2ccc3c(c2)CCN3C(=O)C2CC2)cc1OC | 0.94 | -1.9
Cc1ccc(C)n1-c1ccc(N2CCOCC2)nc1 | 0.94 | -1.9
O=C(CCCn1ncc2ccccc21)NCc1ccc(Cl)cc1 | 0.92 | -3.4
COc1ccc(-c2cc(C(F)(F)F)nc(NCCc3ccccc3)n2)cc1OC | 1.1 | 6.1
CC1CCN(C(=O)CSc2nnc(Cc3cc(=O)[nH]c(=O)[nH]3)n2-c2ccccc2)CC1 | 1.1 | 0.46
COc1cc2ccccc2cc1C(=O)Nc1ccccc1-c1nc2ccccc2[nH]1 | 1.1 | 2.2
CCOc1ccc(-n2ccnc2SCC(=O)Nc2nnc(CC)s2)cc1 | 1.3 | 2.4
Cc1cccc(-c2nnc(SCC(=O)N3CCCc4ccccc43)o2)c1 | 1.2 | 3.6
Cc1nc2cc(-c3cccc(F)c3)nn2c(C)c1CCC(=O)N1CCN(c2ccccc2)CC1 | 1 | 1
COc1ccc(OC)c(N2C(=O)C3C4C=CC(C4=C(C)C)C3C2=O)c1 (stereo not drawn) | 0.98 | -0.24
COc1cc(OC)cc(C(=O)Nc2nc(-c3ccc(Br)cc3)cs2)c1 | 0.89 | -1.4
O=C(Nc1ccc(-c2nc3ncccc3o2)cc1)c1ccccc1F | 1.1 | 2.4
Cc1ccc(CCNC(=O)c2cccc(NC3=NC4CS(=O)(=O)CC4S3)c2)cc1 (stereo not drawn) | 1.1 | 0.99
CC(CCc1ccccc1)NC(=O)C1CCCN(C(=O)c2cc3sccc3n2C)C1 (stereo not drawn) | 0.89 | -3
CCN1CCCC1CNC(=O)c1cn(C)c(=O)c2cc(OC)c(OC)cc12 (stereo not drawn) | 1.1 | 1.3
CCOc1ccc(N2C(=O)CC(NCCc3ccc(S(N)(=O)=O)cc3)C2=O)cc1 (stereo not drawn) | 1.2 | 1.6
COc1cccc(NC(=O)CSc2nc3ccccc3[nH]2)c1 | 0.97 | -0.59
COc1ccc(-n2nnc3c(=O)n(CC(=O)Nc4ccccc4C)cnc32)cc1 | 0.96 | -0.75
CCOC(=O)N1CCN(C(=O)c2cc3c(s2)-c2c(C)cccc2OC3)CC1 | 1.1 | 4
CN(C)S(=O)(=O)c1cccc(-c2cn3cc(Cl)ccc3n2)c1 | 1.1 | 2
OC1(c2cccc(C(F)(F)F)c2)CCNCC1 | 0.97 | -0.67
C=CCNC(=O)CN1C(=O)CSc2ccc(S(=O)(=O)N3CCOCC3)cc21 | 0.73 | -3.1
COc1ccc(OCC(=O)Nc2cccc(-c3nc4ncccc4o3)c2)cc1 | 1 | 0.035
Cc1cc(NC(=O)C(=O)NCCCn2ccnc2)ccc1Br | 0.98 | -0.84
COc1ccccc1-c1nc(S(=O)(=O)c2ccccc2)c(N2CCCCCC2)o1 | 0.91 | -2.7
Cc1ccc(CCN2CC(C(=O)NCCN3CCOCC3)CC2=O)cc1 (stereo not drawn) | 1 | 0.32
c1ccc(Cc2nc(NCCCN3CCOCC3)c3c4c(sc3n2)CCCC4)cc1 | 0.81 | -0.18
Cc1cccc(NC(=O)C(Cc2ccccc2)NS(=O)(=O)c2cccs2)n1 (stereo not drawn) | 1 | 0.55
CCOC(=O)Cc1csc(NC(=O)COc2ccc(Br)cc2)n1 | 1 | 2
Cc1ccc(-c2csc(Nc3ccc(Cl)cc3)n2)cc1C | 0.31*! | -12*!
CCn1c(C(Cc2ccccc2)NC(=O)c2ccc(F)cc2)nc2ccccc21 (stereo not drawn) | 1 | 0.13
CCCN1C(=O)CC(c2ccc(OC)c(OC)c2)Sc2ccccc21 (stereo not drawn) | 0.85 | -2.2
O=C(Nc1ccc2c(c1)OCO2)c1cc(-c2ccc(O)cc2)on1 | 0.97 | -1.1
CC1(C)CC(=O)C2=C(C1)N(c1ccc(F)cc1)C(=O)CC2c1ccsc1 (stereo not drawn) | 1 | 0.044
COc1ccc(Br)cc1C1CC(=O)Nc2cc(C)c(C)cc21 (stereo not drawn) | 1 | 0.91
Cc1ccc(-c2cc(C(F)(F)F)n3ncc(C(=O)NCc4ccco4)c3n2)cc1 | 0.96 | -0.57
CCOC(CNC(=O)C1CCCN(Cc2nc(-c3ccc(OC)cc3)oc2C)C1)OCC (stereo not drawn) | 1.1 | 1.1
O=C(C1CC(=O)N(C2CCCC2)C1)N1CCN(c2ccc(F)cc2)CC1 (stereo not drawn) | 1 | -0.21
CCOc1ccccc1C(=O)N1CC(=O)Nc2ccc(C)cc2C1c1ccc(F)cc1 (stereo not drawn) | 0.97 | -0.56
Cc1ccc2ncnc(NC(C)C(=O)O)c2c1 (stereo not drawn) | 1 | -0.022
CCOc1ccc(CCNC(=O)C2CCN(c3nnc(-n4cccc4)s3)CC2)cc1OCC | 0.96 | -0.37
CN1C(=O)c2ccccc2Sc2ccc(C(=O)N3CCCC3)cc21 | 0.97 | -0.35
O=C(CC1(O)C(=O)N(Cc2ccccc2Cl)c2ccccc21)c1cccnc1 (stereo not drawn) | 0.65 | -3.4
COc1ccc(CCNC(=O)c2cc(-c3ccc(OC)c(OC)c3)nc3ccccc23)cc1OC | 0.95 | -0.6
Cc1ccc(CNC(=O)CCCn2c(=O)c3sccc3n(Cc3ccccc3C)c2=O)cc1 | 1.1 | 1.9
Cc1c(C(=O)O)sc2ncn(CC(=O)Nc3cccc(C(F)(F)F)c3)c(=O)c12 | 1.1 | 1.8
Cc1ccc(-c2noc(CSc3nc(-c4ccccc4)cc(=O)[nH]3)n2)cc1 | 1.1 | 2.1
CCC1CCCCN1C(=O)c1cc2nc(-c3ccc(Cl)cc3)cc(C(F)(F)F)n2n1 (stereo not drawn) | 1.1 | 2
O=C(Nc1cc(-c2nc3ccccc3s2)ccc1Cl)c1cc2ccccc2o1 | 1 | 0.45
O=C(Nc1cnc2ccccc2c1)c1n[nH]c(=O)c2ccccc12 | 1 | 0.71
COc1ccc(CNC(=O)CS(=O)(=O)Cc2nc(-c3ccc(OC)cc3)oc2C)cc1 | 1 | 0.6

4 entries from above, as a markdown table:
| smiles | CBX7 inh | CBX7 inh z-score |
| --- | --- | --- |
| CCC1CCCCN1C(=O)c1cc2nc(-c3ccc(Cl)cc3)cc(C(F)(F)F)n2n1 (stereo not drawn) | 1.1 | 2 |
| CCOc1ccc(CCNC(=O)C2CCN(c3nnc(-n4cccc4)s3)CC2)cc1OCC | 0.96 | -0.37 |
| Cc1ccc2ncnc(NC(C)C(=O)O)c2c1 (stereo not drawn) | 1 | -0.022 |
| Cc1ccc(-c2noc(CSc3nc(-c4ccccc4)cc(=O)[nH]3)n2)cc1 | 1.1 | 2.1 |
